High-throughput results (PubChem BioAssay)
gsp antag = qHTS for Antagonists of gsp, the Etiologic Mutation Responsible for Fibrous Dysplasia/McCune-Albright Syndrome: qHTS. gsp-mutant cells, cAMP HTRF, 30 min; control for the full effect not named in the record. Potency, µM (doses to about 76.9 µM), inactives show at the top dose activity change, negative = inhibition, hits mostly inhibitors. 0.4% of 340,000 active; active = falling curve of any shape with a large fitted effect; inconclusive = falling curve, mostly with a smaller effect; inactive = flat or rising curve; cell line not stated here;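 note: intracellular cAMP measured with PDE inhibitor Ro 20-1724 present during compound exposure; potency is the fitted concentration of half-maximal effect; % is set by controls: 0 for no effect and ±100 for the full control effect; nearly all actives have a fitted effect of over 65% in size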
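HTRF cAMP read-out (cAMP-d2 plus anti-cAMP antibody-K in lysis buffer, 30 min RT). Before lysis, cells are exposed to compounds with […] for 30 min at 37C in DPBS containing Ca/Mg, BSA and Tween 20.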
TRPV1 PAM = HTS Assay for Compounds that Act as Potentiators of the Vanilloid Receptor 1; Transient receptor potential cation channel subfamily V member 1 (Homo sapiens), Q8NER1; TRPV1-expressing cells, Fluo-8 calcium influx, capsaicin EC20 potentiation; host cell line not named in the record; control for the full effect not named in the record; potentiation, % at 8.33 µM; 0.02% of 320,000 active; AID 540277, 2011; active means potentiation above 80%; inconclusive means 30% to 80%; inactive means below 30%; note: 0% is about no effect
Target sequence (Q8NER1 whole entry, looked up): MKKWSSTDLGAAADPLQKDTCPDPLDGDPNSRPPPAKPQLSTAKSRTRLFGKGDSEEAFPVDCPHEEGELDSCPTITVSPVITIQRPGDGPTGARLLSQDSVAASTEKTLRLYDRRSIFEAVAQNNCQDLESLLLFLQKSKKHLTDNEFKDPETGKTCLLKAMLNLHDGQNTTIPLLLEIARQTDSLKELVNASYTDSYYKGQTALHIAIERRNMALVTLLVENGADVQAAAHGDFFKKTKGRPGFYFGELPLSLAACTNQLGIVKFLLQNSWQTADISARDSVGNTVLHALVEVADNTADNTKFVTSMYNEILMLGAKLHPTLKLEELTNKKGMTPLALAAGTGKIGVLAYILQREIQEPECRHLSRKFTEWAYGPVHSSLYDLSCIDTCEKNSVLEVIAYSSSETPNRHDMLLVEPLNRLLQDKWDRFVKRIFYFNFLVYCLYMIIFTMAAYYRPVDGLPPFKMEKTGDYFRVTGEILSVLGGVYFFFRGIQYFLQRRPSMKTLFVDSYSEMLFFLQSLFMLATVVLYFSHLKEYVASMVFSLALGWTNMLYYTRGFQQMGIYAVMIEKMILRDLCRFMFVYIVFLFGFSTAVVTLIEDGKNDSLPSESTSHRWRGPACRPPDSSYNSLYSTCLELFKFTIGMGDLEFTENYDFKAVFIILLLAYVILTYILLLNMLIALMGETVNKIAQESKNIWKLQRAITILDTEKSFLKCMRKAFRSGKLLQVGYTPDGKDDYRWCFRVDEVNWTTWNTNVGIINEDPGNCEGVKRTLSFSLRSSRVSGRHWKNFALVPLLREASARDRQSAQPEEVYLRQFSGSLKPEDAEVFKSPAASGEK
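Fluo-8 calcium influx in TRPV1-expressing cells, kinetic read (ex 480/em 520 nm). Compound added and read 3 min for agonist activity, followed by capsaicin at EC20 final and 2 min further read for enhancement.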
gsp ag = qHTS for Agonist of gsp, the Etiologic Mutation Responsible for Fibrous Dysplasia/McCune-Albright Syndrome: qHTS | Potency, µM (top dose mostly 76.9 µM), for the others: top-dose activation (cAMP increase), hits mostly activators | AID 624287, 2012 | 0.13% of 340,000 active | gsp mutant cells, cAMP HTRF, 30 min; control for the full effect not named in the record; active = well fitted activation curve with a large enough effect; inconclusive = small, poorly fitted or top-dose-only effect, or another doubt; inactive = no such curve, though single readings can be large or run the other way; cell line not stated here;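 note: phosphodiesterase inhibitor Ro 20-1724 added with compounds to block cAMP breakdown; potency is the fitted concentration of half-maximal effect; nearly all actives have a fitted effect of over 60% in size; about a fifth of the inactives were tested at one dose only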
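Cells in DMEM/10% FBS with G418 were pretreated with compounds in DMSO plus […] (300 uM stock) for 30 min at 37C. cAMP was measured by HTRF (cAMP-d2 plus anti-cAMP antibody-K) after 30 min at room temperature.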
Sfp PPTase inh = qHTS Assay for Inhibitors of Bacillus subtilis Sfp phosphopantetheinyl transferase (PPTase) | 4'-phosphopantetheinyl transferase ffp (Bacillus subtilis), Q9F4F7 | Biochemical Sfp PPTase activity, qHTS | Potency, µM, without a hit: max response, negative = inhibition, usual class: inhibitors | 3.5% of 310,000 active | AID 1490, 2009; active = well fitted inhibition curve with a large enough effect; inconclusive = small, poorly fitted or top-dose-only effect, or another doubt; inactive = no such curve, though single readings can be large or run the other way;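 note: the enzyme is Sfp with the accession as filed and its product quenches rhodamine fluorescence; potency is the fitted concentration of half-maximal effect; 0% = enzyme reaction without inhibitor and -100% = no enzyme wells; top concentration of the series not given in the record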
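Reaction rates are the 30-min fluorescence difference (ex 525, em 598 nm) in wells containing 15 nM Sfp, 5 uM rhodamine-CoA and 12.5 uM BHQ-2-YbbR at pH 7.6 with 10 mM MgCl2.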
Menin MLL FP FL = qHTS Assay for Inhibitors Targeting the Menin-MLL Interaction in MLL Related Leukemias: Competition With Fluorescein Labeled MLL-derived Peptide | Fluorescence polarization, fluorescein-MLL peptide displacement from menin | FP activity change, % at 61.4 µM | 290,000 tested, under 10 active | AID 1766, 2009; inconclusive = falling polarisation curve, or a change in total fluorescence; inactive = total fluorescence flat and polarisation flat or rising; no compound was filed as active; the % refers to the polarisation; negative = inhibition;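 note: % of control where 0% means no effect; inhibitors lower the polarisation; unlabelled MLL peptide was the positive control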
D2 PAM = Beta-Arrestin HTS for Positive Allosteric Modulators of the Human D2 Dopamine Receptor: Potentiators; D(2) dopamine receptor (Homo sapiens), P14416; DiscoveRx D2 beta-arrestin cells, luminescence, 90 min; 100% = 57 uM dopamine signal; potentiation, % (no concentration beside the values); 0.23% of 360,000 active; active = potentiation of 50% or more; inconclusive = 30% to 50%; inactive = 30% or less;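 note: compound concentration not given in the record; tested on top of an EC20 dose of dopamine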
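D2 cells co-treated with compound plus 50 nM dopamine (EC20) for 90 min at 37 deg C to detect potentiation. Beta-arrestin recruitment was read as enzyme-fragment luminescence after 1 h at ambient temperature. Full response was set by 57 uM dopamine.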
ClpP mod = qHTS Assay for Activators of ClpP; 1.9% of 340,000 active; purified B. subtilis ClpP, FRET peptide cleavage, 20 min; Potency, µM (series often up to 57.5 µM), for inactives: at the highest dose activity change, negative = active; active = well fitted falling curve with a large enough effect; inconclusive = small, poorly fitted or top-dose-only effect; inactive = no such curve, though single readings can be large or run the other way; note: potency is the fitted concentration of half-maximal effect; the source files actives as falling curves though it sought activators and does not explain the sign; nearly all actives have a fitted effect of over 65% in size; many hits overshoot -100%
Target sequence (P80244 whole entry, looked up): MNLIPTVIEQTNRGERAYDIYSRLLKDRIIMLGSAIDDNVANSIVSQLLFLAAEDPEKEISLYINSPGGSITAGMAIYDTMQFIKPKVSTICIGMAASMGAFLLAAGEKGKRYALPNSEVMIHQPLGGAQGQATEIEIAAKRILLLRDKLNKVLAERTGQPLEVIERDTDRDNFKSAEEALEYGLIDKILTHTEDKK
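Purified B. subtilis ClpP, 10 microg/mL final in Tris/HCl pH8 with KCl, BSA, glycerol and Tween-20, cleaved an Abz/nitrotyrosine-quenched decapeptide. Fluorescence (ex 320, em 430) was read at 0 and 20 min at room temperature. Delta was normalized to 5.8 microM ADEP and DMSO/no-enzyme controls.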
The depositor's hits bear a star; ? = inconclusive; / = not tested or not shown; [ ] = dose if it differs, or a comment.

structure	gsp antag	TRPV1 PAM	gsp ag	Sfp PPTase inh	Menin MLL FP FL	D2 PAM	ClpP mod
COc1ccc(C)cc1Nc1n[n+](C)c(-c2ccc(C(=O)O)cc2)s1	/	-6	/	19%	-8.0	/	/
Cc1cc(C)nc(NC(=O)c2ccc(Br)s2)n1	1%	-17	-2%	8%	-0.4	-5	0.9%
CCC(C)(C)NC(=O)CN(C(=O)CNS(=O)(=O)c1ccccc1)c1ccc2c(c1)OCCO2	-46%	20	-2%[15.4 µM]	8%	-1.8	-1	/
Cc1cc(N=Nc2ccc(Cl)cc2)cc(CN2CCOCC2)c1O	10%	3	-14%[15.4 µM]	-2%	-1.0	-3	-0.2%
Cc1ccc(F)c(N=Cc2c(O)c3ccccc3oc2=O)c1	9%	?	-6%	17%	-2.6	-1	-3.4%
COc1cc(Cl)ccc1NC(=O)COc1ccccc1C(=O)NN	-21%	1	-7%	7%	0.8	-7	-0.7%
CC(C)c1ccccc1OCCNC(=O)c1cncc(Br)c1	-8%	-9	-8%[15.4 µM]	17%	-2.8	-26	-5.7%
O=C(c1ccccc1)c1cc(-c2ccccc2)on1	7%	-18	4%	-15%	0.2	-7	1.4%
Cc1ccc(N2CCN(CC(O)COc3cccc4ccccc34)CC2)cc1 (stereo unspecified)	-2%	-16	-11%	?	-1.9	-50	0.3%
COC(=O)c1ccc(C(=O)OC)c(NC(=O)C2CCCO2)c1 (stereo unspecified)	2%	-8	-24%	4%	2.4	-1	/
Brc1ccc(-c2nc3ncccn3c2Nc2ccc3c(c2)OCCO3)o1	-17%	0	5%	-20%	1.9	28	-0.4%
CCCCCC(C)NC(=O)c1cc(S(=O)(=O)N2CCCCC2)ccc1N1CCOCC1 (stereo unspecified)	-4%	-22	14%	/	/	-6	-1.7%
COc1ccc(OC)c(/C=C/C(=O)OCC(=O)N2CCCC2)c1	-1%	1	10%	/	/	-5	-15%
COc1ccccc1N1CCN(S(=O)(=O)c2cc3c(cc2C)NC(=O)CO3)CC1	-2%	16	-43%[inhibitor]	4%	4.8	0	-0.9%
CC(C)(C)C(=O)Nc1nc2cc3c(cc2s1)OCO3	4%	-10	-3%	15%	2.9	5	0.4%

structure	gsp antag	TRPV1 PAM	gsp ag	Sfp PPTase inh	Menin MLL FP FL	D2 PAM	ClpP mod
O=C(CN1C(=O)NC2(CCCC2)C1=O)OCCOc1ccccc1	12%	15	-1%	9%	0.4	-15	-1.2%
O=C(O)c1cc(S(=O)(=O)N2CCOCC2)ccc1N1CCCCC1	/	7	-11%[15.4 µM]	26%	-7.2	-15	/
O=C(O)C1Sc2[nH]c(=O)sc2C2c3ccc(O)cc3OC(=O)C12 (stereo unspecified)	-8%	3	5%[15.4 µM]	?	?	-2	/
COc1cc(NC(=O)c2cccc(S(=O)(=O)N3CCCCC3)c2)cc(OC)c1OC	-2%	/	-1%	/	/	-5	-1.5%
CCCN(CC1CC1)C(=O)COC(=O)c1oc2c(F)cccc2c1C	-10%	-17	3%	/	/	15	-13%
CC(C)NC(=O)COC(=O)c1ccccc1Oc1ccccc1	-8%	-10	-15%	-3%	-2.1	2	0.3%
CC1CCN(CCCNC(=O)c2ccc(CS(=O)(=O)Cc3ccc(Cl)cc3)o2)CC1	-6%	-4	6%	0%	/	-17	-1.5%
O=C(NC1CCCC1)c1cccnc1N1CCCCCC1	-3%	-1	?	6%	2.4	5	0.4%
CCOC(=O)c1oc2ccccc2c1CSc1nnc(-c2ccco2)o1	-6%	-10	?	-22%	0.4	-7	0.2%
CCC(C(=O)O)n1nnc(-c2ccc(OCc3ccccc3)c(OC)c2)n1 (stereo unspecified)	/	2	/	7%	-0.7	/	/
COc1ccc(C)cc1NC(=O)Nc1cnccn1	-2%	-2	-45%[inhibitor]	17%	-1.8	-12	-4.4%
CCOc1ccc(C(=O)/C=C/c2ccccc2C(F)(F)F)cc1	-17%	4	?	20%	3.0	-7	0.7%
CCN(CC(=O)Nc1c(F)cccc1F)C(=O)CCc1ccc(OC)cc1	15%	0	-6%[15.4 µM]	9%	0.5	-3	/
CCOC(=O)C1CCN(C(=O)Cn2cccc2C(=O)c2ccccc2)CC1	-7%	-27	-45%[inhibitor]	11%	2.5	-9	-1.8%
CC1(C)CC(=O)c2cc(OCC(=O)NCCN3CCOCC3)ccc2O1	15%	-5	10%	6%	2.8	-6	?

structure	gsp antag	TRPV1 PAM	gsp ag	Sfp PPTase inh	Menin MLL FP FL	D2 PAM	ClpP mod
O=C(Nc1ccc(OC(F)(F)F)cc1)Nc1cccnc1	-3%	/	-18%	4%	-1.2	-16	1.6%
COc1ccc(OCC(=O)Nc2ccccc2C(=O)NC2CC2)cc1	6%	7	-5%	/	/	-2	0.9%
COc1cccc(/C=C2/SC(=O)N(C)C2=O)c1OCc1ccc(C(=O)O)cc1	?	2	10%	-2%	4.7	-4	/
CCOC(=O)C1CCN(C(=O)COC(=O)c2ccc3[nH]c4c(c3c2)CCCC4)CC1	-14%	19	-1%[15.4 µM]	/	/	-8	-4.9%
CN(C)S(=O)(=O)c1ccc(C(=O)N2CCN=C2SCc2cccnc2)cc1	-7%	-5	14%	8%	-5.0	-7	-2.6%
O=C(CC(NS(=O)(=O)c1ccc(Cl)cc1)c1ccco1)NCc1cccnc1 (stereo unspecified)	-3%[15.4 µM]	-3	2%	17%	2.8	-9	-26%
CC1=NN(c2nc(-c3ccc(C)cc3)cs2)C(=O)C1N=Nc1ccccc1O (stereo unspecified)	1%	12	14%	?	?	-8	/
COc1ccc(Cl)cc1NC(=O)CN(C)C(=O)/C=C/c1ccco1	2%	/	12%	/	/	-1	-3.0%
O=C(O)c1cn(-c2ccc(F)cc2)c2cc(N3CCNCC3)c(F)cc2c1=O	4%	/	/	11%	-1.1	-5	4.2%
COc1cc(C=O)c(Br)cc1OCC(=O)NCCc1ccccc1	3%	8	-27%	13%	-1.1	-9	-10%
COc1ccccc1C(CNC(=O)c1cc(C)nc2ccccc12)N(C)C (stereo unspecified)	8%	-1	0%	6%	-3.4	-2	/
COc1ccc(Nc2nnc(SCC(=O)N(CC(C)C)C3CCS(=O)(=O)C3)s2)cc1 (stereo unspecified)	/	/	-4%	/	/	-16	0.9%
O=C(Nc1ccc(C#Cc2ccccc2)cc1)C1CC1	-1%	-1	8%	-6%	6.5	0	?
COc1ccc(-n2c(SCC(=O)NCC3CCCO3)nc3ccccc32)cc1 (stereo unspecified)	-10%	-13	-39%[inhibitor]	-3%	4.9	0	0.7%
Cn1c(=O)cc(OCC(=O)N2CCCc3ccccc32)c2ccccc21	-27%	8	9%	13%	-2.0	-11	-1.5%

structure	gsp antag	TRPV1 PAM	gsp ag	Sfp PPTase inh	Menin MLL FP FL	D2 PAM	ClpP mod
CCOC(=O)Nc1ccc2c(c1)N(C(=O)CN1CCN(CCO)CC1)c1ccccc1CC2	4%	-11	-4%	4%	-4.4	-3	/
O=S(=O)(c1ccccc1)c1ccc(N2CCCCCC2)cc1	0%	-18	-13%	-1%	-1.2	7	4.1%
Nc1nc(NC(=O)c2ccccc2Cl)nn1-c1ccccc1	-3%	-3	-4%	14%	14	-3	/
Cc1[nH][nH]c(=O)c1C=NCc1ccc(Cl)cc1	1%	9	-16%	14%	-1.7	1	0.7%
CC(=O)OC1C(=O)N(Cc2ccccc2)C1c1ccc(C)cc1 (stereo unspecified)	0%	/	?	/	/	2	/
Cc1cccc(NC(=O)CN(CC2CCCO2)C(=O)c2cc3ccccc3o2)c1C (stereo unspecified)	-6%	5	12%[15.4 µM]	/	/	-19	-1.9%
O=C(CN(Cc1ccccc1)S(=O)(=O)c1ccc2c(c1)OCCO2)N/N=C/c1ccc(F)cc1	-14%	3	-50%[inhibitor]	17%	0.6	-6	-1.1%
Cc1ccc2nc3c(c(C(=O)O)c2c1)CCC3	-1%	1	-6%	17%	1.4	-15	-13%
COc1cc2c(cc1OC)CN(CC(=O)Nc1ccc3c(c1)OC(F)(F)O3)CC2	-3%	-3	-46%[inhibitor]	14%	0.9	-34	0.9%
Cc1ccc(C)c(S(=O)(=O)N2CCN(C(=O)C3CCN(C(=O)c4ccc(F)cc4)CC3)CC2)c1	-9%	-10	-54%[inhibitor]	/	/	-8	-4.6%
Nc1ccccc1SCC(=O)Nc1ccc(N2CCOCC2)cc1	-7%	-9	-74%[inhibitor]	6%	1.0	?	1.1%
CC(=O)Nc1ccc(S(=O)(=O)N2CCSC2)cc1	7%	-9	9%	15%	-0.3	-3	/
CCN1CCN(C(=O)C2CCN(C(=O)c3cc4sccc4n3CC)CC2)CC1	5%	17	-57%[inhibitor]	-19%	1.2	-12	1.0%
CCCNC(=O)C1CC(=O)N(c2ccc(OCC(=O)Nc3cc(C)cc(C)c3)cc2)C1 (stereo unspecified)	6%	10	-27%	-20%	-1.3	-1	0.3%
CCOc1ccc(NC(=O)CN(C)C(=O)CCNC(=O)c2ccc(Br)cc2)cc1OCC	-7%	-6	-38%[inhibitor]	/	/	-30	0.6%

structure	gsp antag	TRPV1 PAM	gsp ag	Sfp PPTase inh	Menin MLL FP FL	D2 PAM	ClpP mod
O=C(Cc1ccc(F)cc1)N1CCC(N2CCC(C(=O)N3CCOCC3)CC2)CC1	3%	8	3%	18%	-1.1	1	/
CCOc1ccc(C(=O)Nc2cc3c(cc2N2CCCC2)n(CC)c(=O)n3CC)cc1OCC	-18%	2	?	5%	5.0	-9	-19%
CC(C)NS(=O)(=O)c1ccc(CCC(=O)Nc2ccc3c(c2)OCCO3)cc1	-5%	10	18%	20%	2.3	-3	1.7%
C=CC[C@H](CC(=O)NCCO)C(=O)N[C@@H](COC(=O)[C@@H](CC=C)CC(=O)OC(C)(C)C)Cc1c[nH]c2ccccc12	3%	/	1%	/	/	6	2.4%

No enrichment for hits; about 5.1% have a hit in one of these screens.
